Source: PubChem BioAssay
Cruzain inh Det: blocks cruzain activity in presence of Triton detergent; P25779; purified cruzain, Z-FR-AMC fluorescence, 0.01% Triton; Potency, µM, inactives show max response, negative = inhibition, usual class: inhibitors; 200,000 compounds, 0.43% hits; AID 1478; active = well fitted curve in the direction sought with a large enough effect; inconclusive = small, poorly fitted or top-dose-only effect, or another doubt; inactive = no such curve, though single readings can be large; an effect the other way counts as inactive or inconclusive;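 also: plate controls were neutral wells for no effect and buffer without enzyme for full effect; nearly all actives have a fitted effect of over 40% in size; top concentration of the series not given in the record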
Target sequence (P25779 123-467 limits assumed): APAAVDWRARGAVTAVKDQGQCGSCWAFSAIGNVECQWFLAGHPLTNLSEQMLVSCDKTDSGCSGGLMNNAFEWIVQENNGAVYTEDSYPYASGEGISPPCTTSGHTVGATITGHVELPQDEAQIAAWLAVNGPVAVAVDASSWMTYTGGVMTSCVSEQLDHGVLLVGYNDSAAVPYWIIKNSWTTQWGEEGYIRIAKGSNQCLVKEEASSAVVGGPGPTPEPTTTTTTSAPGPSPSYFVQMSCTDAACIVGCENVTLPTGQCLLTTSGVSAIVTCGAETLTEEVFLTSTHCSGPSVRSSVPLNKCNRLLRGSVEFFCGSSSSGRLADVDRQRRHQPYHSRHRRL
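Cysteine protease activity tested under reducing, mildly acidic conditions (100 mM sodium acetate pH 5.5, 5 mM DTT) plus 0.01% Triton X-100. Cruzain 1.5 nM; substrate Z-FR-AMC 2 uM; 15 min compound preincubation at room temperature.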
SARS PLP yeast: blocks SARS-CoV papain-like protease in a yeast assay; S. cerevisiae expressing SARS-CoV PLpro, growth rescue; control for the full effect not named in the record; Potency, µM (titrated, usually from 32.9 µM), without a hit: top-dose activity, positive = growth rescue; 330,000 compounds, 0.19% hits; AID 485353; also: 0% is about no effect; nearly all actives have a fitted effect of over 55% in size; growth read by luminescence after 48 h
Marburg entry inh: Marburg virus entry inhibition. AID 540276. Marburg virus pseudotyped entry inhibition, cell reporter; control for the full effect not named in the record; about a third of the inactives were read at about 46 µM. 300,000 compounds, 1.8% hits. Potency, µM (doses to about 37.8 µM), for inactives: at the top dose activity change, negative = inhibition, most hits filed as inhibitors; active = well fitted inhibition curve with a large enough effect; inconclusive = small, poorly fitted or top-dose-only effect, or effect the other way; inactive = flat fitted curve, though single readings scatter; tested in HEK293 cells; about a fifth of its hits are not listed in these tables; also: % is scaled to controls: 0 for no effect and ±100 for the full control effect; luciferase read-out
2A StopGo: lowers the luciferase signal of an FMDV 2A StopGo reporter. 410,000 compounds, 1.2% hits. AID 1159524. human cells with a luciferase reporter of 2A StopGo recoding; control for the full effect not named in the record. Potency, µM (top dose mostly 57.9 µM), for inactives: at the highest dose signal change, negative = less light; active = well fitted falling curve with a large enough effect; inconclusive = small, poorly fitted or top-dose-only effect; inactive = no such curve, though single readings can be large or run the other way; tested in HEK293T cells; also: % is scaled to controls: 0 for no effect and ±100 for the full control effect; nearly all actives have a fitted effect of over 45% in size; luciferase light after 4 h
RE007 growth inh: less growth of the S. pombe RE007 Vpr strain | S. pombe RE007 Vpr strain, BacTiter-Glo ATP luminescence, 24 h; control for the full effect not named in the record | Potency, µM (titrated, usually from 92.2 µM), for the others: top-dose activity change, negative = less growth | 360,000 compounds, 0.21% hits; active = well fitted falling curve with a large enough effect; inconclusive = small, poorly fitted or top-dose-only effect; inactive = no such curve, though single readings can be large or run the other way;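 also: % is scaled to controls: 0 for no effect and ±100 for the full control effect; nearly all actives have a fitted effect of over 50% in size; the assay follows cell death caused by Vpr and the record does not say whether a fall means rescue or toxicity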
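Fission yeast strain RE007, carrying one chromosomally integrated HIV-1 vpr copy, was seeded at OD 0.01 in PMG+AL medium with 23 nL pinned compound. After 24 h at 30 °C and 99% humidity, viability was read by BacTiter-Glo luminescence.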
NS1 function inh: influenza NS1 inhibition; AID 2326; 270,000 compounds, 0.4% hits; Potency, µM (doses to about 46.1 µM), for inactives: at the top dose activity, positive = more growth; S. cerevisiae slowed by influenza A NS1, growth recovery by OD600; also: actives are rising curves; nearly all actives have a fitted effect of over 50% in size
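S. cerevisiae expressing influenza A NS1, grown in glucose, washed, then diluted 1:100 into pH 6.0 -URA galactose medium with 23 nl compound. Growth recovery read as OD600; NS1-free strain serves as control.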
Lassa entry inh: inhibitors of Lassa virus binding or cell entry; 300,000 compounds, 1.2% hits; Potency, µM (titrated, usually from 37.9 µM), for the others: at the top dose activity change, negative = inhibition, actives largely listed as inhibitors; Lassa virus pseudotype entry inhibition, cell reporter; control for the full effect not named in the record; active means well fitted inhibition curve with a large enough effect; inconclusive means small, poorly fitted or top-dose-only effect, or effect the other way; inactive means flat fitted curve, though single readings scatter; tested in HEK293 cells; also: % is scaled to controls: 0 for no effect and ±100 for the full control effect; nearly all actives have a fitted effect of over 50% in size; luciferase read-out
Cruzain inh noDet: blocks cruzain activity in detergent-free assay. P25779. purified cruzain, Z-FR-AMC fluorescence, no detergent. Potency, µM, inactives show max response, negative = inhibition, usual class: inhibitors. 200,000 compounds, 2.3% hits. AID 1476; active = well fitted curve in the direction sought with a large enough effect; inconclusive = small, poorly fitted or top-dose-only effect, or another doubt; inactive = no such curve, though single readings can be large; an effect the other way counts as inactive or inconclusive;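 also: plate controls were enzyme without inhibitor for no effect and buffer without enzyme for full effect; nearly all actives have a fitted effect of over 40% in size; top concentration of the series not given in the record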
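Detergent-free condition (0.00005% Triton X-100) in acetate buffer pH 5.5 with DTT. 1.5 nM enzyme and compound were pre-mixed 15 min, then 2 uM Z-FR-AMC substrate added; reaction progress from fluorescence change between first and third reads (60 s).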
Starred values were filed as active, the others as inactive; ? = inconclusive; . = no result given; & = joins results of further samples; [ ] = another dose, or the depositor's remark. Unless noted, calls follow the shape of the dose curve; as a rule, active means well fitted rising curve with a large enough effect; inconclusive means small, poorly fitted or top-dose-only effect; inactive means no such curve, though single readings can be large or run the other way. Potency is read from the fitted curve at half-maximal effect.

Structure	Cruzain inh Det	SARS PLP yeast	Marburg entry inh	2A StopGo	RE007 growth inh	NS1 function inh	Lassa entry inh	Cruzain inh noDet
CCOc1ccc(N(C(C)C(=O)N2CCCCCC2)S(C)(=O)=O)cc1 (stereo not drawn)	.	?	.	-2%	-2%	0%	.	.
CC1(c2ccc(Cl)cc2)NC(=O)N(CC(=O)NCc2ccc(F)cc2)C1=O (stereo not drawn)	.	7%	-15%[46.1 µM]	-23%	-3%	12%	10%	.
CC(=O)c1ccc(-c2ccc(-c3cc(=O)oc4c(C(C)C)ccc(C)c34)cc2)cc1	-2.2%	0%	.	-12%	-5%	.	.	8.9µM*
O=C(CN1CCN(Cc2ccccc2)CC1)Nc1nc2ccccc2s1	.	-1%	.	-11%	-11%	4%	.	.
CCOc1ccccc1Nc1nnc(SCC(=O)NC(Cc2c[nH]c3ccccc23)C(=O)O)s1 (stereo not drawn)	.	-1%	24%[46.1 µM]	6%	7%	0%	10%	.
Cc1cccc(NC(=O)[C@@H]2CCCN2C(=O)OC(C)(C)C)c1C	.	1%	-1%[46.1 µM]	19%	3%	3%	1%[46.1 µM]	.
Cc1ccc2c(c1)C(=O)C(=O)N2CCOc1ccccc1	.	-3%	?	13%	-3%	-8%	?	.
O=C(Oc1cc(=O)oc2ccccc12)c1cccnc1Cl	5.9%	7%	?	1%	10%	-1%	4%[46.1 µM]	-4%
CCN(CC)S(=O)(=O)c1ccc2oc(C(=O)N3CCCCCC3)c(C)c2c1	-5.2%	-6%	-33%&-33%[46.1 µM]	?	6%	-41%	?	18%
Cc1cc(=O)n2nc(N3CCCC(C(=O)NC(C)c4ccccc4)C3)sc2n1 (stereo not drawn)	1.4%	-3%	?	-2%	5%	13%	-7%	1%
COc1cccc(-n2c(C)nc3c(cnn3-c3ccc(Cl)cc3)c2=O)c1	-4.3%	-2%	-2%	?	4%	-34%	1%	13%
CCCCNC(=O)CSc1nnc(-c2c[nH]c3ccccc23)n1CC1CCCO1 (stereo not drawn)	8.9%	-2%	-6%	40%[activator]	9%	-6%	-10%	6%
Cc1ccc(C)c(Cn2c(=O)c3c(nc4n3CCN4c3ccccc3)n(C)c2=O)c1	-2.3%	.	.	-4%	.	.	1%[46.1 µM]	6%
COc1cc(SC)ccc1C(=O)Nc1cc(C)c(OCC(=O)N2CCOCC2)c(C)c1	.	0%	?	2%	14%	-23%	?	.
COc1ccccc1C(=O)COC(=O)c1cc(S(=O)(=O)N2CCCCC2)ccc1N1CCOCC1	.	9%	12%	9%	2%	.	-8%	.
CC(C)OCCCn1c(=N)c(C(N)=S)cc2c(=O)n3ccccc3nc21	?	6%	?	-15%	-10%	11%	7%	12%
COc1ccc(S(=O)(=O)N2CCCC2C(=O)Nc2nccs2)cc1 (stereo not drawn)	2.1%	.	?	-19%	-3%	6%	-11%	-2%
Cc1ccc(S(=O)(=O)N2CCN(C(=O)CC(C)n3cncn3)CC2)cc1 (stereo not drawn)	.	0%	-17%[46.1 µM]	-2%	3%	27%	0%	.
COc1ccccc1NS(=O)(=O)c1ccc2oc(=S)[nH]c2c1	.	0%	7%	-4%	3%	9%	0%	.
CC(C)c1ccc(NC(=O)C2CCCN2S(=O)(=O)c2ccccc2F)cc1 (stereo not drawn)	.	-4%	-65%	-2%	0%	.	?	.
CN(C)CCCCOc1ccccc1-c1ccccc1	4.7%	-3%	13µM*	10%	7%	-2%	?	-9%
COc1ccc(C2N(Cc3ccccc3)CC(=O)N2/N=C(\C)c2ccccc2)cc1 (stereo not drawn)	-7.2%	6%	29%	3%	-11%	-3%	18%	-2%
O=C(Nc1ccc([N+](=O)[O-])cc1)c1ccccc1	.	-2%	?	-6%	-18%	7%	11%[46.1 µM]	.
COc1ccc2c(c1)CCc1c(C(=O)Nc3ccc(C#N)cc3)noc1-2	-0.7%	.	-5%[46.1 µM]	-21%	.	.	-9%[46.1 µM]	-8%
Cc1ccc(C(=O)COC(=O)CN2C(=O)C3C4CCC(C4)C3C2=O)cc1C (stereo not drawn)	.	0%	.	35%[activator]	-3%	-2%	.	.
O=C(CC(C(=O)O)c1cccc(Cl)c1)c1ccccc1 (stereo not drawn)	.	-1%	.	-10%	-1%	-1%	.	.
S=c1[nH]nc(-c2cccnc2)n1C1CCCCC1	0.0%	-3%	-16%	-11%	0%	12%	3%	-3%
CCCC(c1nnnn1C(C)(C)CC)N(CCCO)Cc1cc2cc(C)cc(C)c2[nH]c1=O (stereo not drawn)	-4.0%	-4%	?	0%	3%	-4%	?	?
CCN(CC)c1ccc(C(=O)NNC(=O)CCc2nc3ccccc3c(=O)[nH]2)cc1	.	8%	.	1%	-2%	6%	.	.
COc1ccc(OC)c(C(C)NC(C)=O)c1 (stereo not drawn)	-8.6%	-2%	17%	7%	-10%	5%	?	-1%
COc1cccc(NC(=O)Cn2cc(S(=O)(=O)N3CCCC3)c(S(=O)(=O)N3CCCC3)c2)c1	-2.8%	.	.	7%	.	.	?	0%
COc1ccc(-c2nc3ccccn3c2/N=C/c2ccc(OC)c(OC)c2)cc1O	-1.3%	8%	10%	29%	-7%	16%	-3%	3%
CC(C)(C)C(=O)NC(C(N)=O)=C(Cl)Cl	3.6%	7%	-3%	-13%	-11%	10%	-20%	-1%
COc1ccc(-c2nc(CS(=O)CC(=O)NCc3ccc(F)cc3)c(C)o2)cc1OC (stereo not drawn)	-9.0%	.	4%[46.1 µM]	11%	.	.	2%[46.1 µM]	-1%
Nc1nc(Nc2cccc(C(F)(F)F)c2)sc1C(=O)c1ccccc1	-3.3%	.	.	-3%	.	.	-2%[46.1 µM]	-8%
COc1cccc(CNc2nc3c(-c4cccc(C)c4)nnn3c3ccccc23)c1	-0.9%	.	12%[46.1 µM]	2%	.	.	9%[46.1 µM]	-1%
CCOc1ccc(C(=O)NCCc2sc(-c3ccc(F)cc3)nc2C)cc1	-12%	.	.	-17%	.	.	?	16%
OC(COCc1ccccc1)COCc1ccccc1	.	.	?	14%	0%	.	-20%	.
CCOC(=O)C1CCN(C(=O)c2ccc3c(c2)N=C(CC)c2cc(C)ccc2S3)CC1	-5.6%	.	4%[46.1 µM]	0%	.	.	-3%[46.1 µM]	?
O=C(NCc1ccccc1)c1ccc(S(=O)(=O)N2CCCC2)cc1	-0.9%	2%	4%	6%	6%	-5%	30%[14.3 µM]	3%
COC(=O)Cn1c(C)nc2ccccc21	1.6%	5%	12%	-2%	1%	4%	4%	-6%
COc1cccc(C2C(=O)N(C3CCCCC3)CC(=O)N2CCc2ccc(OC)c(OC)c2)c1 (stereo not drawn)	0.2%	.	.	-10%	.	.	8%[46.1 µM]	9%
c1cncc(-c2nc3ccccc3s2)c1	.	-2%	.	35%[activator]	-9%	0%	.	.
Cc1cc(=O)oc2c(N)c(O)ccc12	1.6%	1%	.	4%	-8%	-34%	.	-16%
O=C(COC(=O)CN1C(=O)c2ccccc2C1=O)Nc1ccccc1	.	0%	1%	2%	17%	.	-12%	.
COc1ccc2nc(C)cc(Nc3ccc(C(=O)O)cc3)c2c1	.	1%	.	1%	4%	11%	.	.
CSc1cccc(NS(=O)(=O)c2ccc3c(c2)NC(=O)C(C)C(=O)N3)c1 (stereo not drawn)	.	0%	.	-20%	-2%	-19%	.	.
Cn1c(CC(=O)Nc2ccccc2)nnc1SCC(=O)Nc1ccc(N2CCOCC2)cc1	.	-4%	15%[46.1 µM]	26%	-26%	-18%	7%[46.1 µM]	.
CCCCC(C(=O)O)C(C)CC(=O)Nc1ccn(-c2ccccc2)n1 (stereo not drawn)	2.6%	13%	26%	-11%	3%	2.8µM*	5%	-12%
O=c1c2c3c(sc2n(CCN2CCCCC2)c(=O)n1Cc1ccco1)CCCCC3	5.0%	0%	16µM*	-9%	5%	4%	10%	10%
CN(CC(=O)Nc1ccccc1Cl)C(=O)COC(=O)c1cc([N+](=O)[O-])ccc1N1CCOCC1	.	2%	-28%	-9%	-9%	.	10%	.
CC1=CC(=C(C#N)c2nc3ccccc3s2)C=C(C)N1CC1CCCO1 (stereo not drawn)	.	0%	?	10%	-13%	.	23%	.
COC(=O)/C(C#N)=C/c1ccc(-c2ccc(S(N)(=O)=O)cc2)o1	.	0%	1%[46.1 µM]	27%	-14%	-6%	8%	.
COc1cccc(C2C(C(=O)OC(C)C)=C(C)Nc3ncnn32)c1 (stereo not drawn)	0.1%	10%	-10%	8%	-1%	1%	2%	-11%
N#C/C(=C\Nc1ccc2c(c1)OCCO2)c1nc2ccccc2[nH]1	-4.1%	-17%	?	4%	-11%	-33%	-26%	-13%
COc1ccc(CNC(=O)C(=O)NCC(c2ccco2)S(=O)(=O)c2ccc(C)cc2)cc1 (stereo not drawn)	-2.2%	.	.	0%	.	.	-1%[46.1 µM]	-29%
O=C(CS(=O)c1ccc(C(F)(F)F)cc1[N+](=O)[O-])Oc1ccccc1 (stereo not drawn)	3.8%	-50%	?	28µM*	45µM*	-156%	?	10%
Cc1ccc(S(=O)(=O)c2cnc(SCC(=O)Nc3ccc4c(c3)OCCO4)[nH]c2=O)cc1C	-9.9%	.	3%[46.1 µM]	-21%	.	.	.	?
O=C(CN1C(=O)NC2(CCc3ccccc32)C1=O)NCCc1ccccc1 (stereo not drawn)	.	-3%	?	-14%	4%	.	4%	.
Cn1c(CN2CCOCC2)nnc1SCC(=O)Nc1cc(Cl)ccc1Cl	.	1%	?	44%[activator]	7%	2%	3%[46.1 µM]	.
CCCc1cc(C(=O)N/N=C/c2ccc(CC)s2)c2ccccc2n1	-2.0%	1%	?	?	19%	-2%	-9%	-3%
N#Cc1nc(-c2ccc(F)cc2)oc1NCc1ccco1	.	0%	.	35%[activator]	36%	-2%	.	.
